# HNF4A DNA FP: change in binding of human HNF4 alpha to DNA. HNF4a-FITC DNA binding, fluorescence polarization, 1 h. P41235. activity change, % at 10 µM. 360,000 compounds, 0.3% hits. AID 1224865; in the data active = activity change above about 30%, passing the limit was not always enough;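 note: controls were the assay level and a saturating level of protein; the project sought stronger binding though the title names inhibitors; some compounds called inactive have numbers as strong as hits; positive values seem to mean higher polarization but the record does not say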
# B2AR ag: human beta-2 adrenergic receptor agonism by FAP | 340,000 compounds, 0.43% hits | Am2.2-beta2AR cells, FAP receptor internalization, flow cytometry; reference of the scale not given here | response, % (concentration not given with the values) | P07550;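 active = response above a set limit, near 3 SD of response in nonfluorescent compounds, cut at about 42% in these data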;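 note: stock transfer was 100 nL into about 11 µL; a reference agonist was the positive control; negative values mostly stem from fluorescent compounds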
# Target sequence (P07550 whole entry, looked up): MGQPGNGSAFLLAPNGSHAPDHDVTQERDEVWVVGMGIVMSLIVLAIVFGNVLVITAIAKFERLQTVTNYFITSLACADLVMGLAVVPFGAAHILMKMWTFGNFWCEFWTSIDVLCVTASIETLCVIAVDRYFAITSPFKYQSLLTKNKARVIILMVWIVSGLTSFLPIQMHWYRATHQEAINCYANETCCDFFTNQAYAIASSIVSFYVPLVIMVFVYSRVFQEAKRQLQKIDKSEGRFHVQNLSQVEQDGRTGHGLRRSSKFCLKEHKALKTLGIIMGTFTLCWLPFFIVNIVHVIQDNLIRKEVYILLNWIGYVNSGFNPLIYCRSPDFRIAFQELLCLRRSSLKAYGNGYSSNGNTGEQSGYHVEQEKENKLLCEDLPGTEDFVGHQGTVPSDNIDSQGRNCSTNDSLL
# UCH37 DUB inh: blocks the human deubiquitinase UCH37; purified proteasome/UCH37, Ub-AMC cleavage fluorescence; inhibition, % (concentration not given with the values); AID 588478; 330,000 compounds, 0.33% hits;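 active = mean of two replicates above 20%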;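 note: 0% = compound-free wells with enzyme and 100% = wells lacking proteasome; stock transfer was 100 nL into about 20 µL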
# Target sequence (Q9Y5K5 whole entry, looked up): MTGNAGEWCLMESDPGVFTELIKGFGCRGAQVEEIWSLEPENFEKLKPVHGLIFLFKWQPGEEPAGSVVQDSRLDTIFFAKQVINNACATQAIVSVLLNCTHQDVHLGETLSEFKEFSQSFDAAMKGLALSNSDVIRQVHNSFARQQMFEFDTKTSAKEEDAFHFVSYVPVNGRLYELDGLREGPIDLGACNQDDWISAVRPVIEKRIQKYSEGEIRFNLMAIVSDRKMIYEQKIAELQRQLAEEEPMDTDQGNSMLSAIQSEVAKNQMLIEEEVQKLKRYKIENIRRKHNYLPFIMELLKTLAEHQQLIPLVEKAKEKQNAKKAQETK
#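 Signal – fluorescence, ex 355 nm, em 460 nm · System – Proteasome-bound UCH37 · Input – 0.15 nM proteasome as dispensed · Timing – 30 min preincubation with enzyme, 25 min cleavage at room temperature · Read-out basis – percent inhibition of cleavage signal versus uninhibited and no-proteasome wells · Medium – Tris-HCl pH 7.4 with ATP-MgCl2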
# FGF22 binding: shifts melting point of recombinant human FGF22; 340,000 compounds, 1.5% hits; Q9HCT0; recombinant FGF22 thermal shift, SYPRO orange fluorescence; percent of sucrose octasulfate shift, DMSO zero; calls only at 9.99 µM;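 active = melting point raised past a set limit in the mean and every replicate; three in four hits are not shown here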
# Ecoli rRNA inh: inhibits bacterial ribosomal RNA function over humanized ribosomes | E. coli WT GFP vs humanized-ribosome RFP mutants, fluorescence, 24 h; stronger effect = lower value; DMSO median 0, no signal -100 | GFP signal change (wild-type ribosome), % (test concentration not listed) | 350,000 compounds, 1.6% hits;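 active = significant combined selectivity score with lowered wild-type GFP, culture density cut under 30%, mutant RFP and density less affected; inactive = any of these conditions unmet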; note: one replicate is shown; some compounds called inactive have numbers as strong as hits
# E coli growth: inhibitors of Escherichia coli growth. AID 1053175. OD600 absorbance (no concentration beside the values). 330,000 compounds, 0.21% hits. OD600, 23 h; stronger effect = lower value;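 active = OD600 absorbance below the run mean of sample wells minus 3.6 SD, in any replicate, cut at about 0.56 in these data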;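 note: stock transfer was 300 nL into about 60 µL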
# ALR inh: inhibitors of human sulfhydryl oxidase ALR; P55789; purified ALR, DTT oxidation, H2O2 HRP-luminol luminescence; inhibition, % (no concentration beside the values); 290,000 compounds, 3.8% hits; AID 485317;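 active = mean and each replicate at 75% or more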;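 note: stock transfer was 7.5 nL into about 7.5 µL; 0% = neutral wells and 100% = wells with inactivated enzyme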
# Target sequence (P55789 whole entry, looked up): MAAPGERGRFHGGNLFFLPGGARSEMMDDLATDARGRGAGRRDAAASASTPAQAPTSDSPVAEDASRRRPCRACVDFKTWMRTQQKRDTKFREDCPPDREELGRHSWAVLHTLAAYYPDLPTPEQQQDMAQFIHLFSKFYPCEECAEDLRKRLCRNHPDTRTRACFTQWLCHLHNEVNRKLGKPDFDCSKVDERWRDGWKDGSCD
# Ecoli rRNA inh OD600: recorded beside Ecoli rRNA inh, whose call it bears; OD600 change, %; measured here: OD600 growth;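 optical density of the mix in the first replicate; 0 = DMSO median and -100 = no signal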
# Ecoli rRNA inh RFP: second read-out of Ecoli rRNA inh, no call of its own (marks repeat the call); RFP signal change, %; measured here: RFP humanized mutant strains;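 first replicate; 0 = DMSO median and -100 = no signal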
# * = called active by the depositor; i = inactive; x = no result given. An excerpt; count on the stated rates, not on these rows.
SMILES,HNF4A DNA FP,B2AR ag,UCH37 DUB inh,FGF22 binding,Ecoli rRNA inh,Ecoli rRNA inh OD600,Ecoli rRNA inh RFP,E coli growth,ALR inh
Cc1ccccc1Nc1ncnc2c1cnn2-c1ccccc1,2.9,-1,3.2,i,-22,-44,2.6,0.68,65
N/C(Cc1ccc(Cl)cc1)=N\OC(=O)C1CCCCC1,5.3,-6,3.3,i,-5,0,-2.0,0.69,6
Cn1c(=O)c2c(ncn2Cc2cccc(Cl)c2)n(C)c1=O,2.1,-2,2.7,x,x,x,x,0.68,x
CCc1nnc(NC(=O)CCC(=O)N2CCN(S(=O)(=O)c3cc(Cl)ccc3OC)CC2)s1,2.6,0,4.4,i,-4,-18,2.7,0.68,1
COc1cc(CCC(=O)OCC(=O)Nc2c(C)cccc2C(C)C)cc(OC)c1OC,-1.5,-11,1.1,i,7,23,0.2,0.67,-4
O=C(NC1CCCC1)C1CC(c2ccc(F)cc2)=NO1 (configuration not stated),1.5,6,3.5,x,x,x,x,0.74,-9
O=C(O)/C(=C\c1ccc(Cl)c([N+](=O)[O-])c1)c1ccc(S(=O)(=O)N2CCCC2)s1,-19,-12,11,i,x,x,x,0.68,1
CSc1nc2ccc(N3C(=O)C4CCCCC4C3=O)cc2s1 (configuration not stated),1.8,11,-1.3,x,x,x,x,0.69,-4
Cc1ccc(N2CC(C(=O)OCC(=O)c3ccc([N+](=O)[O-])cc3)CC2=O)cc1 (configuration not stated),4.4,5,0.3,i,2,8,-4.1,0.7,x
Cc1ccc(CNC(=O)CSCc2ccc(F)cc2)cc1,-1.7,1,0.3,i,-10,11,-1.5,0.71,-10
CCCCNC(=O)[C@H]1N2C(=O)c3c(ccc(OC)c3OC)C2SC1(C)C (some centres not stated),1.2,-3,-40,i,7,12,4.8,0.65,-17
CCc1ccc(C(=O)COC(=O)C(CCSC)NC(=O)C23CC4CC(CC(C4)C2)C3)cc1 (configuration not stated),-2.8,5,2.6,i,5,6,-2.1,0.7,1
O=c1cc(-c2cc3ccccc3o2)c2cc(O)ccc2o1,0.5,15,1.2,x,x,x,x,0.69,1
O=C(CN1CCN(Cc2ccc3c(c2)OCO3)CC1)Nc1ccc2c(c1)OCCO2,3.1,-1,-0.1,x,x,x,x,0.69,x
COC(=O)C1(CCSC)NC(c2ccccc2F)C2C(=O)N(c3ccc4c(c3)OCCO4)C(=O)C21 (configuration not stated),-1.8,2,3.5,i,-6,-9,-0.7,0.67,-1
Cc1cc(/C=C(/C#N)C(=O)Nc2ccc(Cl)cc2)c(C)n1-c1cccnc1,2.1,12,-5.3,x,x,x,x,0.68,x
CNC1(C(N)=O)CCN(Cc2ccccc2)CC1,-4.2,1,1.1,i,17,13,0.0,0.68,x
CCC(C)(C(=O)NC1CCCCC1)N(C)C(=O)c1ccccn1 (configuration not stated),3.9,-3,-1.9,x,x,x,x,0.66,-6
COc1ccc(S(=O)(=O)N(C)CC(=O)Nc2ccc3c(c2)OCO3)cc1OC,1.4,5,2.5,x,x,x,x,0.69,-8
CCOc1ccc(C(C(=O)NC2CCCC2)N(CCCO)C(=O)c2ccc(-c3ccccc3)[nH]2)cc1 (configuration not stated),-1.6,-1,2.2,i,-4,-1,11,0.68,1

# Some of these compounds in order of the UCH37 DUB inh value, low to high:
mol,UCH37 DUB inh
CCOc1ccc(C(C(=O)NC2CCCC2)N(CCCO)C(=O)c2ccc(-c3ccccc3)[nH]2)cc1 (configuration not stated),2.2
Cc1ccccc1Nc1ncnc2c1cnn2-c1ccccc1,3.2
CCc1nnc(NC(=O)CCC(=O)N2CCN(S(=O)(=O)c3cc(Cl)ccc3OC)CC2)s1,4.4

# 13 consecutive compounds out of the list so far:
SMILES,HNF4A DNA FP,B2AR ag,UCH37 DUB inh,FGF22 binding,Ecoli rRNA inh,Ecoli rRNA inh OD600,Ecoli rRNA inh RFP,E coli growth,ALR inh
CSc1nc2ccc(N3C(=O)C4CCCCC4C3=O)cc2s1 (configuration not stated),1.8,11,-1.3,x,x,x,x,0.69,-4
Cc1ccc(N2CC(C(=O)OCC(=O)c3ccc([N+](=O)[O-])cc3)CC2=O)cc1 (configuration not stated),4.4,5,0.3,i,2,8,-4.1,0.7,x
Cc1ccc(CNC(=O)CSCc2ccc(F)cc2)cc1,-1.7,1,0.3,i,-10,11,-1.5,0.71,-10
CCCCNC(=O)[C@H]1N2C(=O)c3c(ccc(OC)c3OC)C2SC1(C)C (some centres not stated),1.2,-3,-40,i,7,12,4.8,0.65,-17
CCc1ccc(C(=O)COC(=O)C(CCSC)NC(=O)C23CC4CC(CC(C4)C2)C3)cc1 (configuration not stated),-2.8,5,2.6,i,5,6,-2.1,0.7,1
O=c1cc(-c2cc3ccccc3o2)c2cc(O)ccc2o1,0.5,15,1.2,x,x,x,x,0.69,1
O=C(CN1CCN(Cc2ccc3c(c2)OCO3)CC1)Nc1ccc2c(c1)OCCO2,3.1,-1,-0.1,x,x,x,x,0.69,x
COC(=O)C1(CCSC)NC(c2ccccc2F)C2C(=O)N(c3ccc4c(c3)OCCO4)C(=O)C21 (configuration not stated),-1.8,2,3.5,i,-6,-9,-0.7,0.67,-1
Cc1cc(/C=C(/C#N)C(=O)Nc2ccc(Cl)cc2)c(C)n1-c1cccnc1,2.1,12,-5.3,x,x,x,x,0.68,x
CNC1(C(N)=O)CCN(Cc2ccccc2)CC1,-4.2,1,1.1,i,17,13,0.0,0.68,x
CCC(C)(C(=O)NC1CCCCC1)N(C)C(=O)c1ccccn1 (configuration not stated),3.9,-3,-1.9,x,x,x,x,0.66,-6
COc1ccc(S(=O)(=O)N(C)CC(=O)Nc2ccc3c(c2)OCO3)cc1OC,1.4,5,2.5,x,x,x,x,0.69,-8
CCOc1ccc(C(C(=O)NC2CCCC2)N(CCCO)C(=O)c2ccc(-c3ccccc3)[nH]2)cc1 (configuration not stated),-1.6,-1,2.2,i,-4,-1,11,0.68,1

# Next records follow.
SMILES,HNF4A DNA FP,B2AR ag,UCH37 DUB inh,FGF22 binding,Ecoli rRNA inh,Ecoli rRNA inh OD600,Ecoli rRNA inh RFP,E coli growth,ALR inh
Cc1ccc(C2CC(=O)Oc3cc(C)c(Br)c(C)c32)cc1 (configuration not stated),-0.3,0,1.0,i,-21,-22,-8.7,0.71,x
CC1CCCN(S(=O)(=O)c2cc(C(=O)NCCc3ccc(S(N)(=O)=O)cc3)ccc2Cl)C1 (configuration not stated),2.3,9,x,i,x,x,x,x,x
CCOc1cc(/C=C(/C#N)c2ccc(F)cc2)ccc1OCc1ccc(C(=O)O)o1,-0.5,7,10,x,x,x,x,0.67,18
COC(=O)CN1C(c2ccccc2)=Nc2ccc(Cl)cc2C1c1ccccc1 (configuration not stated),0.6,5,1.2,x,x,x,x,0.71,-11
CCC1(c2ccc(F)cc2)NC(=O)N(CC(=O)N2CCOCC2)C1=O (configuration not stated),0.8,-2,2.9,x,x,x,x,0.79,-22
CCN(CC)S(=O)(=O)c1ccc2c(c1)c(=O)c(C(=O)NCCc1ccccc1)cn2C,-0.1,-1,7.8,i,8,8,-0.8,0.69,-3
CC1(C)Cc2c(oc3ncn4ncnc4c23)CO1,-3.3,-6,2.3,x,x,x,x,0.74,0
CCOC(=O)C(C(=O)OCC)C(C(=O)OCC)N1CCOCC1 (configuration not stated),2.7,19,x,x,x,x,x,x,1
Cc1nn(-c2ccccc2)c(C)c1NC(=O)COc1cc(F)ccc1[N+](=O)[O-],3.3,-2,0.6,i,-27,-34,-12,0.69,0
COc1cc(Nc2cc(C)nc3nc(C)nn23)cc(OC)c1OC,2.2,6,6.7,x,7,13,-1.3,0.74,-1
Cc1ccc(S(=O)(=O)N(CC(=O)O)c2ccc(Cl)c(C(F)(F)F)c2)cc1,-5.7,0,0.5,i,-35,-38,-5.8,0.67,-9
COc1cccc(C(N)=O)c1,3.6,1,-0.3,x,x,x,x,0.67,-6
Cc1ccc(S(=O)(=O)N2CCCCC2)cc1C(=O)N1CCCC1,-1.9,-5,-0.2,i,0,5,-1.7,0.72,-5
COc1ccc(-c2[nH]ncc2/C=N\NS(=O)(=O)c2ccccc2)cc1OC,2.8,-7,x,x,x,x,x,x,20
Cc1ccc(-c2cc(=O)c3ccc(F)cc3[nH]2)cc1,-3.8,-9,2.8,i,14,18,1.1,0.66,-4
Cc1ccc2nc3c(cc2c1)CN(Cc1ccco1)C(=NCC1CCCO1)S3 (configuration not stated),-2.7,10,4.0,x,x,x,x,0.78,-6
CC(C)Oc1ccc(C(CC(=O)NCc2ccco2)c2ccccc2)cc1 (configuration not stated),2.4,6,3.8,i,-7,-12,-1.8,0.63,-8
CCNc1nc(SCCOc2ccccc2)nc(N(C)C)n1,-2.4,8,5.2,i,14,4,0.4,0.7,-5
CCOC(=O)C(=CNc1ccc(O)c(C(=O)OC)c1)C(=O)OCC,1.6,-4,1.7,i,-3,-4,-1.3,0.69,34
CCc1ccc(CNC(=O)CCC(=O)N2Cc3cccc(OC)c3Oc3ncccc32)cc1,2.2,-6,0.8,i,-8,-10,-0.1,0.7,-3
COc1ccc(CCC(=O)OCC(=O)Nc2ccccc2)cc1,-0.9,15,1.8,i,1,1,0.8,0.66,0
COC(C(=O)N/N=C(\C)CC(=O)Nc1ccc(N(C)C)cc1)c1ccccc1 (configuration not stated),1.7,4,x,i,6,4,0.0,x,99*
CCOC(=O)C1(C)CCN1C(=O)CSc1ccccc1 (configuration not stated),1.9,x,x,i,9,18,2.0,x,x
CCOC(=O)C1C(C(=O)OC)=C(C(=O)OC)c2ccccc2N1S(=O)(=O)C(F)(F)F (configuration not stated),2.2,3,2.0,i,8,1,0.6,0.68,x
O=C(CSc1nnc(-c2cccnc2)n1C1CCCCC1)NC1CCCCC1,-1.4,3,1.2,x,x,x,x,0.68,-7
CS(=O)(=O)NC1c2cccc3cccc(c23)C1N1CCOCC1 (configuration not stated),-3.4,4,1.1,x,-3,-3,-5.1,0.71,-8
COc1ccc(N2C(=O)C(=O)/C(=C(/O)c3ccc(C)cc3)C2c2cccnc2)cc1 (configuration not stated),14,-2,3.9,x,x,x,x,x,-3
CCN(CC)S(=O)(=O)c1ccc(NS(=O)(=O)c2ccc(C)c(C)c2)cc1,-1.7,0,1.0,x,x,x,x,0.69,-2
O=C(O)CN(c1ccccc1)S(=O)(=O)c1cc(C(F)(F)F)cc(C(F)(F)F)c1,5.0,4,3.1,i,-2,7,-1.4,0.7,-3
Cc1noc(N)c1C(=O)Nc1ccc(C(C)(C)C)cc1,0.1,4,1.0,x,x,x,x,0.68,x
COCCCNC(=O)Cn1cc(/C=C(\C#N)C(=O)N2CCN(c3ccccc3)CC2)c2ccccc21,-0.7,2,4.1,i,13,19,-2.9,0.65,6
Cc1cc(O)c(C)c(O)c1/C=N/NC(=O)c1cccnc1,-3.8,2,x,i,2,5,2.2,x,1
COc1cccc(OCCSc2nnc3sc4ccccc4n23)c1,1.7,-10,4.9,x,x,x,x,0.68,-16
CC(=O)Nc1cccc(-c2ccnc3c2CC(C(=O)NCc2ccc(F)c(F)c2)O3)c1 (configuration not stated),0.2,x,x,i,-1,-1,1.7,x,x
CN(CC(=O)Nc1c(Cl)cccc1Cl)C(=O)c1n[nH]c2ccccc12,-0.6,-3,2.7,i,4,8,1.2,0.66,x

# Bioassay records (PubChem)
